TRPML1 ag = activates the human TRPML1 channel. TRPML1-expressing cells, Ca2+ dye fluorescence, FDSS; host cell line not named in the record; reference of the full effect not given here. activation, % (concentration not given with the values). 0.12% of 410,000 active; in the data active = activation above about 50%; inconclusive = about 30% to 50%; inactive = below about 30%; further: 0% is about no effect; the text of the record puts the active cut at 80%
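Tet-induced TRPML1-DL cells, 1,500 per well, cultured overnight, were loaded with a no-wash Ca2+ dye for 45–90 min. Calcium fluorescence was recorded on the FDSS for 110 s after compound addition, before the EC80 agonist (4 uM 54-4) was added.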
TRPV1 PAM = human TRPV1 potentiation. 0.02% of 320,000 active. TRPV1-expressing cells, Fluo-8 calcium influx, capsaicin EC20 potentiation; host cell line not named in the record; control for the full effect not named in the record. potentiation, % at 8.33 µM; active means potentiation above 80%; inconclusive means 30% to 80%; inactive means below 30%; further: 0% is about no effect
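TRPV1-expressing cells were cultured overnight at 35.5C and loaded with Fluo-8 calcium dye for 40 to 90 min at room temperature. After a 10 s baseline, compound was added and calcium influx was read kinetically for 3 min (ex 480/em 520 nm).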
D2 potentiator = potentiates the human D2 dopamine receptor allosterically; AID 624464; DiscoveRx D2 beta-arrestin cells, luminescence, 90 min; 100% = 57 uM dopamine signal; potentiation, % (concentration not given with the values); 0.23% of 360,000 active; P14416; active = potentiation of 50% or more; inconclusive = 30% to 50%; inactive = 30% or less;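 further: compound concentration not given in the record; tested on top of an EC20 dose of dopamine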
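PathHunter beta-arrestin assay in DiscoveRx D2 cells. Compounds were added with an EC20 of dopamine (50 nM final) for 90 min at 37 deg C. Luminescence was read 1 h after detection reagent, with 57 uM dopamine as the EC100 control.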
CtBP-E1A inh = inhibitors of CtBP/E1A interaction; 0.49% of 340,000 active; activity change, % (test concentration not listed); AlphaScreen GST-E1A/His-CtBP binding, 1536-well; active compounds read low; control for the full effect not named in the record; AID 651724; in the data active means activity change below about -65%; inconclusive means about -30% to -65%; inactive means above about -30%; further: on the % scale 0 is the no-effect control and ±100 the full control effect
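Protein mix (5X: 125 nM each GST-E1A, His-CtBP) was incubated with pinned compound 2 h at 37 deg C in dark, in 50 mM Tris pH 8.0 buffer with 300 mM NaCl. Glutathione donor and nickel acceptor beads followed; AlphaScreen signal read after 1 h.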
TRPML1 inh = blocks the human TRPML1 channel; 0.02% of 390,000 active; Q9GZU1; activity change, negative = inhibition, % (test concentration not listed); TRPML1-inducible cells, Ca2+ dye fluorescence, FDSS; active compounds read low; inhibition of EC80 agonist-evoked calcium signal; AID 624415; in the data active means activity change below about -50%; inconclusive means about -30% to -50%; inactive means above about -30%;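 further: stimulus is agonist 54-4 at its EC80 concentration; on the % scale 0 is the no-effect control and ±100 the full control effect; compound concentration not given in the record; the text of the record puts the active cut at -80%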
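TRPML1-DL cells, Tet-induced overnight (~16 h, 37 °C) at 1,500 cells/well, were loaded with Ca8 no-wash dye plus quencher for 45-90 min at room temperature. Compounds were pinned during FDSS kinetic reading; agonist 54-4 at EC80 (4 uM final) then added.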
Six1-Eya2 inh = blocks human Six1 binding to Eya2; activity change, % (concentration not given with the values); AlphaScreen GST-Six1/His-Eya2 binding, biochemical; active compounds read low; control for the full effect not named in the record; Q15475+O00167; 0.56% of 360,000 active; in the data active = activity change below about -65%; inconclusive = about -30% to -65%; inactive = above about -30%; further: on the % scale 0 is the no-effect control and ±100 the full control effect
Target sequence (O00167 whole entry, looked up): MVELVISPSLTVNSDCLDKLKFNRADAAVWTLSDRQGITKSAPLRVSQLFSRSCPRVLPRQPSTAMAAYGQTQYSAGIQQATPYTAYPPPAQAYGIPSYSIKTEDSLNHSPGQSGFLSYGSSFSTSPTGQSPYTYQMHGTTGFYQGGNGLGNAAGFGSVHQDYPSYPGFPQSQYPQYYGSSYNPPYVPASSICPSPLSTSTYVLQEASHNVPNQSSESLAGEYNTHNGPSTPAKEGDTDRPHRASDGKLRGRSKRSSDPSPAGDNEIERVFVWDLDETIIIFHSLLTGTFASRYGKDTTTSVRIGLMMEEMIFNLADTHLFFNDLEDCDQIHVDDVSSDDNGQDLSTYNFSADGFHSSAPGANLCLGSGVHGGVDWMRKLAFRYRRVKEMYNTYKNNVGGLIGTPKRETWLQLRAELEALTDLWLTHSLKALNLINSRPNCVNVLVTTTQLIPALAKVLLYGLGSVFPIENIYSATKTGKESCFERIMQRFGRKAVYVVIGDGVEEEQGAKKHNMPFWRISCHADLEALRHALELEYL
Target sequence (Q15475 whole entry, looked up): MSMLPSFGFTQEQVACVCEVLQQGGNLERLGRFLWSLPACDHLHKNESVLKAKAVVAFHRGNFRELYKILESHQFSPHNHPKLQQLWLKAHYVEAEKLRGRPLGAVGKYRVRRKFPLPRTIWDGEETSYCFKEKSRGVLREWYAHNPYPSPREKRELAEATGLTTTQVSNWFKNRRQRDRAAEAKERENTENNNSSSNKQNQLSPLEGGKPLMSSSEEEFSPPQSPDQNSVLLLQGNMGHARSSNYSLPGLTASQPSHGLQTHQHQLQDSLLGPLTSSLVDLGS
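AlphaScreen luminescence read after one hour at 37 °C in darkness. Pin-transferred compounds met GST-Six1 and His-Eya2 protein (5X stock 250 nM/500 nM) plus glutathione donor and Ni-chelate acceptor beads (5X, 50 ug/mL).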
The depositor's hits bear a star; ? = inconclusive; · = not tested or not shown.

Values in the order: TRPML1 ag	TRPV1 PAM	D2 potentiator	CtBP-E1A inh	TRPML1 inh	Six1-Eya2 inh
Cc1cc(C)c(NC(=O)c2cccc3c2C(=O)N(C2CCCCC2)C3)c(C)c1
→ -1.5	-17	-5	1	4	2
COc1cccc(CNc2ccc3c(c2)nc(C)n3C)c1OC
→ -0.3	7	-6	·	-10	2
CCc1nc2ccccc2c(C(=O)OCC(=O)Nc2ccc(NC(C)=O)cc2)c1C
→ 0.4	·	-1	-13	29	-6
Nc1c(NC=O)c(=O)n(Cc2ccccc2)c(=O)n1Cc1ccccc1
→ -0.3	·	-5	-3	-5	-17
Cc1c(NC(=O)c2cccc(F)c2)c(=O)n(-c2ccccc2)n1C
→ 0.3	26	-5	2	11	5
CCOC1=C2[C@@H](CN(S(=O)(=O)c3ccc(C)cc3)[C@H]2c2cccs2)[C@H]2C(=O)N(c3ccccc3)C(=O)[C@H]2C1
→ 2.2	·	-1	-3	0	-6
CCN(C(=O)COC(=O)c1c(C)c(-c2ccccc2)nc2ccccc12)C1CCS(=O)(=O)C1 (stereo not drawn)
→ 0.8	-9	6	4	3	12
CCCNC(=O)C1CCN(S(=O)(=O)c2c(C)noc2/C=C\c2ccc(OC)cc2)CC1
→ 0.1	?	1	1	-3	1
O=c1[nH]c2cc([N+](=O)[O-])ccc2c2cc(Br)ccc12
→ 0.0	·	-2	-9	4	-14
O=C(NNC(=O)C1CCN(Cc2ccccc2)CC1)c1cccc(Cl)c1
→ 0.3	14	-19	6	30	7
CCN1CCN(C(=S)Nc2ccsc2C(=O)OC)CC1
→ -0.2	-35	-14	8	-7	2
CCCN1CCC(NC(=O)CCc2nnc(-c3ccccc3)o2)CC1
→ 0.3	-1	-7	9	-11	5
CNC(C)C(=O)NC(C(=O)NC(C)C(=O)Nc1cccc2ccccc12)C(C)C (stereo not drawn)
→ -0.5	·	-1	8	-18	-1
COc1ccc(C(=O)COC(=O)[C@@H](NS(=O)(=O)c2ccccc2)C(C)C)cc1
→ 1.5	·	-1	-8	7	10
COc1ccccc1C(=O)Nc1ccc(Oc2nnc(-c3ccc(C)cc3)c3ccccc23)cc1
→ 0.5	10	11	-12	-9	-11
CCc1nnc(NS(=O)(=O)c2ccc(NC(=O)c3ccc(S(=O)(=O)N(CC)CC)cc3)cc2)s1
→ -0.3	0	3	5	4	-1
Cc1ccccc1OCCNC(=O)CNC(=O)c1ccccc1O
→ 3.0	-13	-12	-1	5	-1
O=S(=O)(c1cc(Cl)ccc1Cl)N1CCNCC1
→ -0.4	12	-6	5	0	0
CC(=O)Nc1sc(-c2ccc(Cl)cc2)nc1-c1ccccc1
→ -0.1	-20	-8	-5	-2	-1
CC(C)CCC(O)(CCC(C)C)C(=O)NN1CCCCC1
→ 1.8	0	2	3	2	2
O=C(OCCNc1nc(-c2ccccc2)nc2ccccc12)c1ccncc1
→ 0.5	-2	-1	-8	20	-8
O=C(COc1cc2oc(=O)cc(-c3ccccc3)c2cc1Cl)NCC1CCC(C(=O)O)CC1 (stereo not drawn)
→ -0.6	8	1	-1	29	-16
O=C(NCCCN1CCOCC1)C(=O)N/N=C/c1ccccc1Cl
→ -0.4	8	-21	·	14	1
CCNc1ccc(S(=O)(=O)N(C)C)cc1NCC(=O)Nc1ccccc1Cl
→ 0.4	-18	-6	-6	23	-10
C=CCn1c(/N=C/c2ccc3c(c2)OCO3)nc2ccccc21
→ 1.1	-9	-2	-4	7	-5
CCOc1ccc(S(=O)(=O)NCCC(=O)OCC(=O)c2ccc(NC(C)=O)cc2)cc1
→ -0.9	17	-3	-5	2	0
O=C(NCCCn1ccnc1)c1cn(-c2ccccc2)nc1-c1ccc(F)cc1
→ 0.3	-9	-23	0	-2	-9
CSc1ccccc1C(=O)NC1CCCN(c2ccc(C(F)(F)F)cn2)C1 (stereo not drawn)
→ 1.5	-5	-8	1	-1	-3
COc1ccc(-c2cn3cccnc3n2)cc1NC(=O)c1cccs1
→ -0.8	-7	-1	-8	0	-4
COc1cccc(NC(=S)N2CCc3cc(OC)c(OC)cc3C2COc2ccc3c(C)cc(=O)oc3c2)c1 (stereo not drawn)
→ 1.1	13	0	-15	11	0
CCc1ccc2c(c1)[C@]1(C(=O)N2)[C@@H]2C(=O)N(Cc3ccccc3)C(=O)[C@@H]2[C@@H]2CCCN21
→ 0.2	-9	3	-6	1	-7
COC(=O)c1ccc2nc(-c3cccc(Br)c3)c(Cc3ccccc3C(F)(F)F)n2c1
→ 0.4	·	·	8	·	-10
C/C(=N\OCc1cccc(C(=O)O)c1)c1ccc(Cl)cc1
→ -0.3	9	0	2	14	0
COc1ccc(N2C3=C(CC4=C2CCCC4=O)C(=O)CCC3)cc1
→ -0.4	-34	?	-5	6	-26
O=C(Cn1cc2c(n1)CCCC2)N1CCCc2ccccc21
→ 0.0	-14	-8	0	-18	7
CC(=O)c1c(C)[nH]c(C(=O)COC(=O)C2(C)CC2(Cl)Cl)c1C (stereo not drawn)
→ -0.4	·	2	·	2	-8
O=C(Nc1cccc(S(=O)(=O)N2CCCCC2)c1)C1COc2ccccc2O1 (stereo not drawn)
→ 0.5	·	2	-1	6	-9
C=CCn1c(N)c(C(=O)NCC2CCCO2)c2nc3ccccc3nc21 (stereo not drawn)
→ -0.3	-1	-22	13	-2	6
Cc1ccc(S(=O)(=O)N2CCN(CC(O)c3ccccc3)CC2)cc1 (stereo not drawn)
→ 0.2	1	2	9	-2	3
CCC1(c2ccc(F)cc2)NC(=O)N(CC(=O)N2CCN(S(=O)(=O)c3ccc(Cl)cc3)CC2)C1=O (stereo not drawn)
→ -0.5	14	-6	-2	12	5

Of the compounds above, these contain a COOH group:
Values in the order: TRPML1 ag	TRPV1 PAM	D2 potentiator	CtBP-E1A inh	TRPML1 inh	Six1-Eya2 inh
O=C(COc1cc2oc(=O)cc(-c3ccccc3)c2cc1Cl)NCC1CCC(C(=O)O)CC1 (stereo not drawn)
→ -0.6	8	1	-1	29	-16
C/C(=N\OCc1cccc(C(=O)O)c1)c1ccc(Cl)cc1
→ -0.3	9	0	2	14	0

Further structures follow.
Values in the order: TRPML1 ag	TRPV1 PAM	D2 potentiator	CtBP-E1A inh	TRPML1 inh	Six1-Eya2 inh
Cc1ccc(C(=O)/C=C/c2cc(C#N)n(C)c2C)cc1
→ 0.7	6	-12	1	9	-1
CCc1ccccc1NC(=O)c1ccccc1Sc1ccc([N+](=O)[O-])cc1Cl
→ 1.1	2	-3	-3	1	-15
Cn1c(SCC(=O)Nc2ccc(Br)cc2)nc(O)cc1=O
→ -0.5	7	-2	3	-17	-13
COCCN(C(=O)Cc1coc2cc(C)c(C)cc12)c1c(N)n(Cc2ccccc2)c(=O)[nH]c1=O
→ -0.8	-1	-6	-1	1	1
COc1ccccc1C(=O)N1CCCN(C(=O)c2ccccc2OC)CC1
→ -0.1	5	-5	-2	-4	4
Fc1ccc(NC(=S)NN2CCOCC2)cc1Cl
→ -0.4	3	0	2	3	3
COc1ccc2nc(NC(=O)c3ccccc3[N+](=O)[O-])sc2c1
→ 0.0	-16	-5	-10	-8	-3
CCc1ccc(CCC(=O)Nc2nc(CC(C)=O)ns2)o1
→ -0.2	4	7	-4	3	0
O=C(Nc1ccc(Cl)cc1)C1CCCN(c2cnccn2)C1 (stereo not drawn)
→ -1.0	-19	-14	·	8	-4
C=CCN(CC(=O)NC1CCCC1)C(=O)C(=O)Nc1ccc2c(c1)OCCO2
→ -0.8	5	-2	3	-9	11
CN1/C(=C\C(=S)NC(=O)c2ccc([N+](=O)[O-])cc2)C(C)(C)c2ccccc21
→ 2.6	2	-6	?	12	?
O=C(Nc1ccc2c(c1)OCO2)c1ccc(Cl)c(S(=O)(=O)N2CCOCC2)c1
→ -0.2	-16	1	-1	-9	?
Nc1c(C(=O)c2ccccc2)sc(Nc2ccccc2)c1S(=O)(=O)c1ccccc1
→ 2.2	-3	-15	-8	17	-6
NC(=O)c1cc(S(=O)(=O)N2CCN(c3cccc(Cl)c3)CC2)cs1
→ -1.3	-6	-6	-1	6	7
C/C(=N\Nc1nnc(-c2ccccc2)c(-c2ccccc2)n1)c1cccc([N+](=O)[O-])c1
→ 0.7	11	-9	0	3	-2
COc1ccc(-n2cc(-c3ccccc3)nc2SC)cc1
→ 2.2	2	5	9	46	-15
COc1ccc(-c2noc(N(C)CC(=O)Nc3cccc(C(F)(F)F)c3)n2)cc1
→ 2.6	0	-10	2	-8	-4
O=C(CSc1cccc[n+]1[O-])Nc1ccc([N+](=O)[O-])cc1Cl
→ -0.4	1	15	10	2	2
Cc1ccc(NC(=O)CS(=O)CC(=O)N(c2ccccc2F)C(C)C(=O)NC2CCCC2)cc1 (stereo not drawn)
→ -1.8	-4	-9	-1	-1	16
CCOC(=O)c1c(NC(C)=O)sc2c(OC)cccc12
→ 0.3	?	-4	-1	-3	0
CC1(NC(=O)CCNC(=O)c2ccc(C(C)(C)C)cc2)CCS(=O)(=O)C1 (stereo not drawn)
→ -0.4	12	1	·	32	3
OCC(O)C1OC(Nc2ccc(Br)cc2)C(O)C1O (stereo not drawn)
→ 0.2	-7	-7	-15	5	15
COC(=O)c1sccc1NS(=O)(=O)c1ccccc1[N+](=O)[O-]
→ -0.6	4	29	6	-4	-3
COCC(C)NC(=O)NC(=O)c1ccc(Cl)cc1 (stereo not drawn)
→ 0.7	3	0	-7	0	-2
CC(C)(C)NC(=O)C(OC(=O)Cn1nnc(-c2ccc(F)cc2)n1)c1ccncc1 (stereo not drawn)
→ 0.8	-6	-7	10	18	4
CNC(=S)Nc1cc(OC)ccc1OC
→ 0.4	13	-4	6	-7	1
CN(CCc1cnn(C)c1)C(=O)CCc1nnc(CCCc2ccccc2)o1
→ 0.1	23	-3	5	-4	6
CC(=O)c1ccc(N2CCN(CC(O)c3ccccc3)CC2)cc1 (stereo not drawn)
→ 0.0	-4	-10	5	-1	9
COc1ccc(C)cc1NC(=O)CSCc1ccccc1C
→ 2.5	2	-8	2	18	4
Cc1ccc(S(=O)(=O)N2CCOCC2)cc1C(=O)N1CCCC1
→ 1.3	0	-4	-21	-1	8
O=C(O)c1cccc(N2C(=O)c3cccc4c(Cl)ccc(c34)C2=O)c1
→ 0.0	13	9	4	-4	-5
C/C=C/C(=O)Nc1cccc(C(F)(F)F)c1
→ 0.8	-15	-33	-11	-14	-3
Cc1ccccc1NC(=O)C(Cl)=C(Cl)Cl
→ -0.7	4	-7	2	-6	9
CC(C)C[C@H]1CNC(=S)N1CC1CCCN1C[C@H](CC(C)C)N1C[C@H](CC(C)C)N(CC2CCCCCC2)C1=S (stereo partly drawn)
→ -0.6	·	-2	-1	8	6
O=C(NCc1ccc(F)cc1)C(=O)NCC1OCCN1S(=O)(=O)c1cccs1 (stereo not drawn)
→ 0.1	13	-3	-4	24	-1
O=C(N/N=C/c1ccco1)c1csc2c1CCCC2
→ 0.4	-7	-12	-10	2	-2
O=C(Cn1nnc(-c2ccc(F)cc2)n1)N1CCCCC1
→ -0.2	1	-3	1	-11	-4
O=C(Nc1cccnc1)c1cnc2ccccc2n1
→ 0.3	2	1	1	-5	-7
